CapD inh: CapD enzyme inhibition | z-score (test concentration not listed) | AID 492967 | purified CapD enzyme, fluorescence intensity read-out; hits give low values; some hits fall short of the stated cut | 140,000 tested, 0.23% active;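 active means z-score under -4 in either of two replicates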;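 further: stock transfer was 100 nL into about 40 µL; score is relative to mean and spread of the plate; one replicate is shown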
AID504770: E. coli YBA685 growth inhibition, screen for V. cholerae RctB inhibitors; E. coli YBA685 rctB-dependent plasmid, OD600 growth, 3 h; hits give low values; z-score (concentration not given with the values); 130,000 tested, 0.27% active; AID 504770;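 active means z-score under -2 on both plates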;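 further: wells of about 30 µL received 100 nL stock; score is relative to mean and SD of the test wells; the first replicate is given; strong numbers were not always called active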
Active calls of the source: *; . = no result given; & = joins results of further samples.

SMILES | CapD inh | AID504770
C/C(=N\NC1=NCCN1)c1ccc(C)cc1 | -0.7 | -0.5
C=CCn1c(SCC(=O)NC(C)(C#N)C(C)C)nc2ccccc2c1=O (stereo not given) | . | 0.05
Cc1cc(NC(=O)c2cccc(S(=O)(=O)N3CCCCC3)c2)no1 | 0.16 | -0.65
Cc1noc(C)c1CC(=O)N1CCC2CCCCC2C1 (stereo not given) | . | -0.4
CCc1ccc(N2C(=O)/C(=C/c3ccc(OCC(=O)O)c(OC)c3)C(=O)NC2=S)cc1 | -0.84 | .
Cc1ccc(C2CC2/C(=N/OC(=O)c2ccc(F)cc2)c2ccc(F)cc2)cc1 (stereo not given) | -0.21 | .
CN(C)CCNC(=O)c1ccc(Br)s1 | 0.14 | 0.05
S=C(NCC1CCCC1NC(=S)NC1CC2C=CC1C2)NC1CC2C=CC1C2 (stereo not given) | -0.015 | .
CSc1nn(CSc2n[nH]c(-c3ccccc3F)n2)c(=S)s1 | -0.85 | -0.55
COc1cc(CNc2ccc3[nH]c(=O)[nH]c3c2)cc(Cl)c1OCC(=O)NC(C)(C)C | 3.9 | 0.75
S=c1nc(CNc2ccccc2)[nH][nH]1 | . | -0.8
CCOC(=O)c1cn2nc(Oc3ccc(N4CCN(C(C)=O)CC4)cc3)ccc2n1 | 21 | -0.85

Record cards, as listed above. Screens in order: CapD inh | AID504770
CN(C)CCNC(=O)c1ccc(Br)s1 as listed: 0.14 | 0.05
S=C(NCC1CCCC1NC(=S)NC1CC2C=CC1C2)NC1CC2C=CC1C2 (stereo not given) as listed: -0.015 | .
C/C(=N\NC1=NCCN1)c1ccc(C)cc1 as listed: -0.7 | -0.5
C=CCn1c(SCC(=O)NC(C)(C#N)C(C)C)nc2ccccc2c1=O (stereo not given) as listed: . | 0.05
CSc1nn(CSc2n[nH]c(-c3ccccc3F)n2)c(=S)s1 as listed: -0.85 | -0.55

(more compounds)
SMILES | CapD inh | AID504770
CCNc1nc(SCc2ccc(C(C)(C)C)cc2)cc(C(F)(F)F)n1 | 0.83 | .
Cc1ccc(NC(=O)CSc2nc3c(cnn3-c3ccc(S(N)(=O)=O)cc3)c(=O)[nH]2)cc1 | 0.92 | -0.35
O=C(NCc1ccc(Cl)cc1)C1CCCN(S(=O)(=O)N2CCCCC2)C1 (stereo not given) | 0.58 | -0.65
COc1ccc(S(=O)Cc2ccc(C(=O)NC3CC3)o2)cc1 (stereo not given) | 0.04 | 1.1
COc1ccc(OCCCC(=O)OCc2nc3ccccc3[nH]2)cc1 | . | -0.3
NC(=O)C1Cc2ccccc2CN1Cc1c(O)ccc2ccccc12 (stereo not given) | . | 0
O=C(COC(=O)C1CC1)Nc1ccccc1Cl | 0.24 | 0.75
COc1ccc2cc3cc(C(=O)NCCN4CCN(c5ccccc5F)CC4)oc3nc2c1 | 0.11 | -0.4
N#CC1(N2CCNCC2)CCCCC1 | . | -0.3
CCOC(=O)C1=C(CC)Nc2ccccc2N=C1NC(=O)Cn1cnc2ccccc2c1=O | . | -0.2
Nc1ccccc1NCCO | . | -0.85
Cc1ccc2nc(-c3ccc(N(C)C)cc3)[nH]c2c1 | . | -0.35

3 entries from above, arranged by SMILES length, high to low.
SMILES | CapD inh | AID504770
CCOC(=O)C1=C(CC)Nc2ccccc2N=C1NC(=O)Cn1cnc2ccccc2c1=O | . | -0.2
N#CC1(N2CCNCC2)CCCCC1 | . | -0.3
Nc1ccccc1NCCO | . | -0.85

Continued.
SMILES | CapD inh | AID504770
O=C(N/N=C1\CCCc2ccccc21)C(O)c1ccccc1 (stereo not given) | 0.96 | 0.1
Cc1ccc(-n2c(SC/C(O)=C(\C#N)c3nc4ccccc4[nH]3)nc3ccccc3c2=O)cc1 | . | 0.3
Cc1cc(NC(=O)/C=C\c2ccc3c(c2)OCO3)nc2c1c(=O)oc1ccccc12 | . | 1
CCc1ccc(-c2nn(-c3ccccc3)cc2/C=C2\SC(=S)NC2=O)cc1 | -0.99 | -0.15
CC(=O)N1C(=O)C2(Nc3ccccc3N2)c2ccccc21 | -0.87 | .
N#CCn1c(COC(=O)c2ccc(S(=O)(=O)N3CCCCCC3)cc2)nc2ccccc2c1=O | . | -0.1
Cc1ccc2c(c1)sc(=NC(=O)c1ccccc1)n2C | 27 | -0.75
COc1cccc(N=Nc2c(O)[nH]c(=O)[nH]c2=O)c1 | . | -0.9
COc1ccc(-c2nc3cc(NC(=O)c4ccc([N+](=O)[O-])cc4Cl)ccc3o2)cc1OC | -0.36 | .
COc1cccc(N2CCN(C(=O)CN(c3ccc(C)cc3)S(=O)(=O)c3c(C)n[nH]c3C)CC2)c1 | -0.29 | 0.3
COc1ccc(C2CC(=O)C3=C(C2)NC(C)=C(C(=O)OCC(C)C)C3c2ccc(O)c(OC)c2)cc1 (stereo not given) | 13 | .
CCOC(=O)C1=C(C)N=c2s/c(=C\c3cccn3-c3cccc([N+](=O)[O-])c3)c(=O)n2C1c1ccc(OC)c(OC)c1 (stereo not given) | -0.27 | .
N#C/C(=C\c1cccc(Oc2ccccc2)c1)C(N)=O | . | 2
O=C(CSc1n[nH]c(-c2ccco2)n1)c1ccc(F)cc1 | -0.05 | .
O=S(=O)(NCCc1cn2ccccc2n1)c1ccccc1 | . | -0.75
O=C(NC(=S)NCCN1CCOCC1)c1cccc(C(F)(F)F)c1 | . | 0
c1ccc(C(c2ccccc2)N2CCN(C3=Nc4ccccc4CS3)CC2)cc1 | 0.1 | .
CC(C)n1cc(-c2ccc3ccccc3n2)cn1 | 53 | .
O=C(Cc1nn[nH]n1)Nc1ccc(F)c(Cl)c1 | -0.36 | -0.65
Oc1cccc2ccc(Nc3ccccn3)nc12 | -0.015 | 1.8
Oc1ccccc1-c1nc2cnccn2c1Nc1ccccc1 | -0.69 | 0.75
O=C(CN1C2=NCCCN2c2ccccc21)c1ccc(O)cc1 | -0.61 | .
CC(C)(C)c1cc2cc(NC3CCNCC3)ccc2[nH]1 | 1.2 | .
COC(=O)CCc1c(C)nn(-c2ccc(C(=O)NCc3c(OC)cccc3OC)cc2)c1C | -0.34 | .
COc1cc(OC)nc(C2CCCCC2C(=O)O)n1 (stereo not given) | -0.67 | .
O=C(OC1CCCCC1=O)c1ccc(-c2nc3ccccc3s2)s1 (stereo not given) | . | 0.2
Cc1c2cnn(-c3ccccc3)c(=O)c2c(C)n1CCCC(=O)N(C)Cc1ccccc1 | 0.14 | 0.25
O=C1C2=C/C(=C\N3CCCCC3)C(=O)N2c2ccccc21 | -2.2 | -0.3
Cc1cc(/C=C2\C(=O)NC(=S)N(c3ccccc3F)C2=O)c(C)n1-c1ccc(Cl)c(C(=O)O)c1 | -0.21 | -0.8
O=C(CN1C(=O)c2ccccc2S1(=O)=O)Nc1ccccc1 | 0.7 | 2.6
CN(/N=C/c1cc(Cl)cc(Cl)c1O)c1ccc(C(F)(F)F)cc1[N+](=O)[O-] | -2 | .
COc1cc2c(cc1O)CC1c3c(cc(O)c(OC)c3-2)CCN1C (stereo not given) | 0.065 | .
CC(=O)N1C(=O)CC(c2ccccc2)N(C(C)=O)c2ccccc21 (stereo not given) | -0.075 | .
CCC(=O)N(CCN1CCOCC1)Cc1cc2cc3c(cc2nc1Cl)OCO3 | . | -1.3
CC(C)[N+](C)(CCOC(=O)C1c2ccccc2Oc2ccccc21)C(C)C | 0.095&-0.17 | -0.2
CCc1ccc(NC(=O)CCc2nc3cccnc3n2Cc2cccs2)cc1 | 4 | -0.5
O=C(Cn1nnc2ccccc21)N1CCN(S(=O)(=O)Cc2ccccc2)CC1 | . | 0.85
O=C(NCc1csc(-c2cccs2)n1)c1ccc2c(c1)CCO2 | 53 | -0.1
Cc1noc(C(=O)N2CCN(C(c3ccccc3)c3ccccc3)CC2)c1Cl | 0.24 | 0.7
Cc1cn(CCC(=O)Nc2ccc(F)cc2)c2ccccc12 | -0.29 | 0.35
O=C(CN1C(=O)CCC1=O)c1ccc2c(c1)OCCO2 | . | -0.3
CCN1CCN(c2cc(C)c3cc(NC(=O)C4CCCCC4)ccc3n2)CC1 | 48 | -0.9
Cc1ccc(-c2c(CN3CCN(C)CC3)csc2C)cc1 | 0.85 | 0.15
OCc1nccn1Cc1ccccc1 | -0.5 | .
Cc1cc(C)c(C)c(S(=O)(=O)NCCCN(C)C)c1C | 0.89 | .
COc1cc(-c2cc(C(F)(F)F)n3ncc(C(=O)Nc4ccc(O)cc4)c3n2)cc(OC)c1OC | -1.4 | .
COc1ccc(Cc2nc(C)cc(Cl)n2)cc1Cl | -0.21 | -1.2
CCOc1ccc2nc(SCC(=O)N3CCN(C(=O)c4ccc(C)cc4)C3)sc2c1 | 0.05 | -0.25
N#CC1(C#N)[C@H](c2ccccc2I)[C@@H](C(=O)c2ccccc2)N2c3ccccc3C=C[C@@H]21 | -0.26 | .
CC(=O)Nc1ccc(-n2cc(-c3ccccc3)nc2SCC(N)=O)cc1 | 0.095 | -1.2
COc1ccc2c(c1)-c1c(ssc1=S)C(C)(C)N2C(=O)CSc1nnc(C)s1 | -1.9 | .
O=S1(=O)C=CC(Sc2nc3ccccc3[nH]2)C1 (stereo not given) | -0.22 | 1.6
CCN1CCCC1CNC(=O)c1cnc(SC)nc1-c1ccccc1 (stereo not given) | -1.5 | 0.6
Cc1ccc2[nH]cc(CC(C)N)c2c1 (stereo not given) | 36 | -1
COc1ccc(-c2cc(=O)c3cccc(C)c3o2)cc1 | 45 | -0.3
COc1ccccc1N1C(=O)C2C3c4ccccc4C(c4ccccc43)C2C1=O (stereo not given) | -0.32 | .
COC(=O)C1C(=O)NC(SCC(=O)Nc2ccc(C)c(C)c2)=C(C#N)C1c1ccccc1F (stereo not given) | 0.095 | .
CCCNC(=O)COc1coc(CSc2nncn2C)cc1=O | . | 2
O=Nc1ccc(NOC(=O)c2ccc(Br)cc2)cc1 | -1.3 | -1.1
Cc1ccc(C)c(NC(=O)CN(C)C(=O)NCc2cccnc2)c1 | . | -1.2

(next part)
SMILES | CapD inh | AID504770
Cc1ccc(C(=O)COC(=O)c2nc(Cl)ccc2Cl)cc1 | 1.3 | 0.85
S=C1NC2(CCCCCCC2)NN1c1ccc(Cl)cc1 | -0.17 | .
CCS(=O)(=O)c1ccc(C#N)cn1 | -0.4 | 0.85
CSc1c(-c2ccccc2)c(N)nn1S(=O)(=O)c1ccccc1 | -1 | .
O=C(NCc1ccccc1Cl)c1ccc[nH]1 | 0.055 | -0.2
c1ccc(-c2cnc(CSc3nc4c(n3-c3ccccc3)CCCC4)o2)cc1 | . | -0.7
COc1ccc(/C(C)=N/Nc2c([N+](=O)[O-])cc(C(F)(F)F)cc2[N+](=O)[O-])cc1CC#N | 0.42 | .
CC1(C)Cc2c(sc(NC(=O)c3ccccc3)c2C#N)C(C)(C)N1 | -0.45 | -0.25
O=C(N/N=C/c1cccc(O)c1)C1C2CCCCC21 (stereo not given) | -0.12 | -0.8
O=C1NC2(CCN(Cc3ccccc3)CC2)Oc2ccccc21 | -1.1 | .
CCOC(=N)c1ccc(F)c(Cl)c1 | 0.46 | .
CCOc1ccc(CCNC(=O)c2cc3c(C)nccc3[nH]c2=O)cc1OCC | -1.4 | -0.35
CC(=O)Nc1cccc([N+](=O)[O-])c1 | -0.53 | .
CCN1CCC(N(Cc2cccc(OC)c2)C(=O)Nc2ccc3c(c2)OCCO3)CC1 | -0.05 | -0.65
c1cc2c(cc1-c1ccc(SCCN3CCCCC3)nn1)OCO2 | . | 0
CCCCn1c(CCC(=O)O)ccc1-c1ccccc1 | 1.9 | -0.65
O=C(C1CCCCN1S(=O)(=O)c1ccc(F)cc1)N1CCN(c2ccccc2F)CC1 (stereo not given) | -0.48 | 1.1
CSc1cccc(NC(=O)C(C)NS(=O)(=O)c2ccccc2)c1 (stereo not given) | -0.43 | -1.5
NNC(=O)c1ccc(Oc2ccc(C(=O)NN)cc2)cc1 | -0.22 | 1.3
CN(C)C(=O)COC(=O)c1ccc(S(=O)(=O)N2CCCC2)cc1 | . | 0.15
CCc1nnc(SCC(=O)N2c3ccc(F)cc3CCC2C)n1C (stereo not given) | . | -0.1
Cn1cc(C(=O)Cc2ccccc2)c2ccccc21 | -0.025 | -0.3
O=CC12c3ccccc3C(c3ccccc31)C1C(=O)N(c3ccc(C(=O)O)cc3)C(=O)C12 (stereo not given) | 0.47 | .
FC(F)(F)c1ccccc1NNC(=S)NCCN1CCOCC1 | . | 0.7
c1cn2cc(CSC3CCCC3)nc2s1 | 0.12 | -0.8
O=S(=O)(c1ccc(-c2csc(=Nc3ccccc3)n2CCCO)cc1)N1CCOCC1 | -1.4 | -0.35
COC(=O)c1ccc(-c2ccc(/C=C3/C(=N)N4N=C(COc5ccccc5)SC4=NC3=O)o2)cc1 | 0.41 | 1.4
Cc1ccccc1NC(=O)N1c2ccccc2CC1C (stereo not given) | -0.55 | 1.1
CN(C)CCOC(=O)c1ccc2c(c1)OCCO2 | -0.6 | -0.85
CCOCCOC(=O)C1=C(C)NC(=O)NC1c1ccccc1OCc1ccccc1 (stereo not given) | 0.34 | .
COC(=O)CCN1CCNC(=O)CC1 | -0.44 | .
Cc1ccc(N(C(=O)COc2c(C)cccc2C)S(=O)(=O)c2ccc(Cl)cc2)cc1 | -0.15 | 0.05
CC(C)(C)NC(=O)Cn1c(=O)oc2ccccc21 | . | -0.25
Cc1nn(-c2ccccc2)c(C)c1/C=C/C(=O)OCc1nc2ccsc2c(=O)[nH]1 | . | -0.25
C=CCSc1nnc(-c2ccncc2)o1 | -0.3 | -1
COc1cc(OC)nc(CN2CCN(C(=O)c3cc(OC)c(OC)c(OC)c3)CC2)n1 | -0.52 | .
